Screening results as filed in PubChem.
TRPML1 agonist = qHTS for Agonists of the Human Mucolipin Transient Receptor Potential 1 (TRPML1) | Mucolipin-1 (Homo sapiens), Q9GZU1 | TRPML1-expressing cells, Ca2+ dye fluorescence, FDSS; host cell line not named in the record; reference of the full effect not given here | activation, % (concentration not given with the values) | 410,000 compounds, 0.12% hits | AID 624414, 2012; in the data active = activation above about 50%; inconclusive = about 30% to 50%; inactive = below about 30%; further: 0% is about no effect; the text of the record puts the active cut at 80%
Target sequence (Q9GZU1 whole entry, looked up): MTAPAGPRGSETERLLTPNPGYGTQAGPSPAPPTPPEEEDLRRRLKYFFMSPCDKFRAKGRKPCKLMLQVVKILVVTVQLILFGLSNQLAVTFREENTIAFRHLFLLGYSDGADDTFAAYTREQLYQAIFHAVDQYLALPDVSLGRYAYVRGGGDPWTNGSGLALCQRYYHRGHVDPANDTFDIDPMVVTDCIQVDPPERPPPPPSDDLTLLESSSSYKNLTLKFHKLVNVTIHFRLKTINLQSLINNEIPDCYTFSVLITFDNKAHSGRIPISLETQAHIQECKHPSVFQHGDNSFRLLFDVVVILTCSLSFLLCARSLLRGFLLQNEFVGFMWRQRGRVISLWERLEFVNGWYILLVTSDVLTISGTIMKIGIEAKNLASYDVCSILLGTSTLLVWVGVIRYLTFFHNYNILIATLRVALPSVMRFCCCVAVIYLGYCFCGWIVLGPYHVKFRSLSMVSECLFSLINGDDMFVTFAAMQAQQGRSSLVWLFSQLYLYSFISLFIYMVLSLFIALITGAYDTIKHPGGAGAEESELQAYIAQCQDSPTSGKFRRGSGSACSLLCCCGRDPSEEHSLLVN
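In this qHTS format, compounds were pin-transferred onto Ca8-dye-loaded TRPML1-DL cells induced with Tet overnight, and intracellular Ca2+ fluorescence was recorded kinetically for 110 s after a 10 s baseline. A subsequent 4uM final 54-4 (EC80) addition followed by a second 110 s read served as the antagonist phase.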
D2 potentiator = Beta-Arrestin HTS for Positive Allosteric Modulators of the Human D2 Dopamine Receptor: Potentiators; DiscoveRx D2 beta-arrestin cells, luminescence, 90 min; 100% = 57 uM dopamine signal; AID 624464, 2012; potentiation, % (no concentration beside the values); 360,000 compounds, 0.23% hits; active = potentiation of 50% or more; inconclusive = 30% to 50%; inactive = 30% or less;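 further: compound concentration not given in the record; tested on top of an EC20 dose of dopamine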
Target sequence (P14416 whole entry, looked up): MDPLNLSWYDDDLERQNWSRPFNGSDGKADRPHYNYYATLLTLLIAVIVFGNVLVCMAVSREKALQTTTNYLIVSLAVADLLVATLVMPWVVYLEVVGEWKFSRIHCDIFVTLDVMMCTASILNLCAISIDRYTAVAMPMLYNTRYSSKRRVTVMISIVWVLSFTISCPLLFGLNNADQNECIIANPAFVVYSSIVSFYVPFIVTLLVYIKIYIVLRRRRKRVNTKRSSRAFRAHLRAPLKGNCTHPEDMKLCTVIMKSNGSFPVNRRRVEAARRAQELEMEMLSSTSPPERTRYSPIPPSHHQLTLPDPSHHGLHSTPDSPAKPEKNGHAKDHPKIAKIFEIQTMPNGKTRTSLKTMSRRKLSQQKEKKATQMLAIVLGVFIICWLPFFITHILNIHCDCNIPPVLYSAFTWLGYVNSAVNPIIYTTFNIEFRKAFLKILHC
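PathHunter beta-arrestin assay in DiscoveRx D2 cells. Compounds were added with an EC20 of dopamine (50 nM final) for 90 min at 37 deg C. Luminescence was read 1 h after detection reagent, with 57 uM dopamine as the EC100 control.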
TRPML1 blocker = qHTS for Inhibitors of the Human Mucolipin Transient Receptor Potential 1 (TRPML1) | Mucolipin-1 (Homo sapiens), Q9GZU1 | TRPML1-inducible cells, Ca2+ dye fluorescence, FDSS; active compounds read low; inhibition of EC80 agonist-evoked calcium signal | activity change, negative = inhibition, % (concentration not given with the values) | 390,000 compounds, 0.02% hits | AID 624415, 2012; in the data active means activity change below about -50%; inconclusive means about -30% to -50%; inactive means above about -30%;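 further: stimulus is agonist 54-4 at its EC80 concentration; on the % scale 0 is the no-effect control and ±100 the full control effect; the text of the record puts the active cut at -80%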
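TRPML1-DL cells, Tet-induced overnight (~16 h, 37 °C) at 1,500 cells/well, were loaded with Ca8 no-wash dye plus quencher for 45-90 min at room temperature. Compounds were pinned during FDSS kinetic reading; agonist 54-4 at EC80 (4 uM final) then added.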
CtBP-E1A blk = qHTS Assay for Inhibitors of the CtBP/E1A Interaction | CtBP / adenovirus E1A interaction (AlphaScreen) | AlphaScreen GST-E1A/His-CtBP binding, 1536-well; active compounds read low; control for the full effect not named in the record | activity change, % (test concentration not listed) | 340,000 compounds, 0.49% hits | AID 651724, 2012; in the data active means activity change below about -65%; inconclusive means about -30% to -65%; inactive means above about -30%; further: on the % scale 0 is the no-effect control and ±100 the full control effect
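Protein mix (5X: 125 nM each GST-E1A, His-CtBP) was incubated with pinned compound 2 h at 37 deg C in dark, in 50 mM Tris pH 8.0 buffer with 300 mM NaCl. Glutathione donor and nickel acceptor beads followed; AlphaScreen signal read after 1 h.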
TRPV1 PAM = HTS Assay for Compounds that Act as Potentiators of the Vanilloid Receptor 1. Transient receptor potential cation channel subfamily V member 1 (Homo sapiens), Q8NER1. TRPV1-expressing cells, Fluo-8 calcium influx, capsaicin EC20 potentiation; host cell line not named in the record; control for the full effect not named in the record. potentiation, % at 8.33 µM. 320,000 compounds, 0.02% hits. AID 540277, 2011; active means potentiation above 80%; inconclusive means 30% to 80%; inactive means below 30%; further: 0% is about no effect
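TRPV1-expressing cells were cultured overnight at 35.5C and loaded with Fluo-8 calcium dye for 40 to 90 min at room temperature. After a 10 s baseline, compound was added and calcium influx was read kinetically for 3 min (ex 480/em 520 nm).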
Six1-Eya2 inh = qHTS Assay for Inhibitors of the Six1/Eya2 Interaction; Homeobox protein SIX1 (Homo sapiens) + Protein phosphatase EYA2 (Homo sapiens), …; AlphaScreen GST-Six1/His-Eya2 binding, biochemical; active compounds read low; control for the full effect not named in the record; activity change, % (test concentration not listed); 360,000 compounds, 0.56% hits; AID 651725, 2012; in the data active = activity change below about -65%; inconclusive = about -30% to -65%; inactive = above about -30%; further: on the % scale 0 is the no-effect control and ±100 the full control effect
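GST-Six1 + His-Eya2 (5X stock: 250/500 nM); Tris pH 8.0, 300 mM NaCl, 0.05% BSA, 0.02% Tween 20; GSH donor/Ni acceptor beads; 1 h 37 °C dark; AlphaScreen readout.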
The depositor's hits bear a star; u = inconclusive; x = no result given.

cpd	mol	TRPML1 agonist	D2 potentiator	TRPML1 blocker
1	CCOC(=O)c1ccc(NC(=O)C2CC2)cc1	-0.1	-6	10
2	COC(=O)c1cn(C(=O)c2ccc(C)cc2)c2ccccc12	1.5	-6	-9
3	COc1ccc(CC(=O)OCC(=O)NC(=O)NC23CC4CC(CC(C4)C2)C3)cc1	2.0	6	-2
4	Cn1nccc1NS(=O)(=O)c1ccc(NC(=O)C(F)(F)F)cc1	0.1	-6	1
5	COc1ccc(CNC(=O)CN(Cc2ccc(C)cc2)S(=O)(=O)c2ccc(Cl)cc2)cc1	1.3	7	-12
6	COc1ccc(OC)c(NC(=O)CCN2C(=O)c3ccccc3C2=O)c1	0.2	-1	1
7	Cc1ccccc1C(=O)N1CCC(C(=O)Nc2ccc(F)cc2)CC1	0.5	-19	-21
8	CC(=O)C1C(c2cccc(F)c2)c2c(n[nH]c2C)CC1(C)O (configuration not stated)	0.7	-3	-9
9	CCn1cc(CNC(=O)c2ccc(Cl)c([N+](=O)[O-])c2)c(C)n1	-0.6	-10	6
10	CCOc1ccc2nc(SCC(=O)N(CC(C)C)c3c(N)n(Cc4ccccc4)c(=O)[nH]c3=O)[nH]c2c1	-0.9	-16	13
11	CN(Cc1c(F)cccc1Cl)C(=O)c1ccc2ccccc2n1	0.6	-8	5
12	CN(C)CCNc1ncnc2c1sc1nc(-c3ccccc3)c3c(c12)CCCC3	0.6	-13	22
13	Cc1ccc(CNC(=O)c2ccc(N3CCC4(CC3)CC(c3ccccc3)=NO4)c(NC(=O)c3ccc(Br)cc3)c2)cc1	-0.5	-25	-4
14	COc1ccc(-n2c(C)cc(/C=C3\C(=O)NN(c4ccccc4)C3=O)c2C)cc1	-0.1	-6	-23
15	Cn1c(=O)c2c(ncn2CCC(=O)N/N=C/c2ccncc2)n(C)c1=O	0.4	-2	u

cpd	CtBP-E1A blk	TRPV1 PAM	Six1-Eya2 inh
1	6	-11	-1
2	x	-5	11
3	0	-8	-2
4	3	10	4
5	0	-3	1
6	8	u	7
7	2	-13	-1
8	12	u	4
9	13	-25	0
10	16	12	-8
11	5	-6	-7
12	-17	5	-9
13	1	u	-1
14	-7	-11	6
15	1	-4	-1

More records follow.
cpd	mol	TRPML1 agonist	D2 potentiator	TRPML1 blocker
16	COc1cccc(C2C(C(=O)c3cc4ccccc4o3)=C(O)C(=O)N2c2cc(C)on2)c1OC (configuration not stated)	1.2	-6	32
17	COc1cc(/C=C/C(=O)c2ccc(Cl)s2)cc(OC)c1O	2.4	-16	5
18	Cc1ccc(NC(=O)C2=NNC(=O)CC2)cc1F	1.5	-6	-4
19	Cc1ccc2cc(C)c(NCCO)nc2c1	0.8	-15	20
20	O=c1cc(-c2ccccc2)nc2cc(-c3ccc(Br)cc3)[nH]n12	1.7	-13	7
21	CCn1c(CNC(=O)c2ccco2)nnc1SCC(=O)Nc1cc(C)c(C)cc1Br	-0.8	-8	-2
22	Cc1cc(NC(=O)c2ccc(C#N)cc2)n(-c2ccccc2)n1	0.0	-9	-15
23	CC(NC(=O)C1CCN(S(=O)(=O)c2cc([N+](=O)[O-])ccc2Cl)CC1)c1ccccc1 (configuration not stated)	-0.3	0	-1
24	CCCOc1ccc(F)cc1-c1cc(C(=O)Nc2ccc(OC)cc2C)[nH]n1	-0.7	-1	x
25	O=C(Nc1ccccc1)C1(c2ccccc2)CC1(Cl)Cl (configuration not stated)	-0.7	3	5
26	CCOc1ccc(COC(=O)C2CC(=O)N(CCc3ccccc3)C2)cc1OC (configuration not stated)	-0.8	-1	41
27	Cc1ccc(S(=O)(=O)N2[C@@H](c3ccccc3)C(C(=O)O)=CC[C@H]2c2ccc(C(C)C)cc2)cc1	0.2	0	-13
28	COC(=O)c1cc(NC(=O)Nc2cc(OC)ccc2OC)cc(C(=O)OC)c1	-0.4	-20	2
29	CCOc1ccc(CN(C(=O)c2cc3ccccc3oc2=O)C2CCS(=O)(=O)C2)cc1 (configuration not stated)	-0.1	-13	5
30	N#Cc1c(-c2ccc(Br)cc2)nc2n(c1=O)CCCS2	3.8	1	35

cpd	CtBP-E1A blk	TRPV1 PAM	Six1-Eya2 inh
16	-3	29	-2
17	-3	11	4
18	6	-35	11
19	3	-9	11
20	-2	5	2
21	-2	5	0
22	x	2	10
23	-13	-5	-3
24	-5	x	-12
25	5	-3	4
26	x	-6	0
27	x	u	-8
28	-3	-9	0
29	0	2	-5
30	0	-3	3

Filtered by structure, those above with a furan ring, fused or not
cpd	mol	TRPML1 agonist	D2 potentiator	TRPML1 blocker
16	COc1cccc(C2C(C(=O)c3cc4ccccc4o3)=C(O)C(=O)N2c2cc(C)on2)c1OC (configuration not stated)	1.2	-6	32
21	CCn1c(CNC(=O)c2ccco2)nnc1SCC(=O)Nc1cc(C)c(C)cc1Br	-0.8	-8	-2

cpd	CtBP-E1A blk	TRPV1 PAM	Six1-Eya2 inh
16	-3	29	-2
21	-2	5	0

The listing picks up, repeating the three entries before the break.
cpd	mol	TRPML1 agonist	D2 potentiator	TRPML1 blocker
28	COC(=O)c1cc(NC(=O)Nc2cc(OC)ccc2OC)cc(C(=O)OC)c1	-0.4	-20	2
29	CCOc1ccc(CN(C(=O)c2cc3ccccc3oc2=O)C2CCS(=O)(=O)C2)cc1 (configuration not stated)	-0.1	-13	5
30	N#Cc1c(-c2ccc(Br)cc2)nc2n(c1=O)CCCS2	3.8	1	35
31	CC(C)CN(C(=O)c1ccc(=O)n(C)n1)c1nc2ccccc2s1	0.2	-1	-10
32	COc1cc(NC(=S)N2CCOCC2)c(OC)cc1Cl	0.5	9	-2
33	Cc1ccc(C(=O)NCC(=O)Nc2ccc3c(c2)CCC3)cc1C	-0.8	-1	-8
34	Cc1cc2nc(CCN(C(=S)NCC(C)C)C3CCCC3)[nH]c2cc1C	0.3	-24	1
35	Cc1noc(NS(=O)(=O)c2ccc(N/C=C\C(=O)c3ccc(Br)cc3)cc2)c1C	0.9	-9	13
36	COc1cccc(/C=N/NC(=O)CNC(=O)C2COc3ccccc3O2)c1O (configuration not stated)	3.4	2	26
37	CS(=O)(=O)n1nc(-c2ccc(Cl)cc2)nc1SCc1ccccc1	2.3	-4	-2
38	O=C(c1cc(C(=O)N2CCN(c3ccc(F)cc3)CC2)cc([N+](=O)[O-])c1)N1CCN(c2ccc(F)cc2)CC1	0.3	4	13
39	Cn1c(=O)c2c(nc(N/N=C/c3cccnc3)n2Cc2ccc(F)cc2)n(C)c1=O	-1.2	-7	-18
40	Cn1cc([N+](=O)[O-])c(C(=O)Nc2nc(-c3ccc(Cl)cc3)cs2)n1	0.8	-6	-24
41	O=C1Nc2ccccc2Nc2ncccc21	-0.7	-15	-7
42	O=C1CN(C(=O)/C=C/c2cc(Br)ccc2F)CCN1	0.1	0	53
43	CCOc1ccc(N2CC(C(=O)Nc3nnc(C4CCCCC4)s3)CC2=O)cc1 (configuration not stated)	-0.5	-2	-5
44	O=c1c2ccccc2nc(CSc2nnnn2-c2ccccc2)n1-c1ccccc1	0.0	-8	-11
45	O=C(CNC(=O)c1cccc(Cl)c1)NCC(c1cccs1)N1CCOCC1 (configuration not stated)	-0.2	-5	-16

cpd	CtBP-E1A blk	TRPV1 PAM	Six1-Eya2 inh
28	-3	-9	0
29	0	2	-5
30	0	-3	3
31	-6	-3	10
32	x	9	-3
33	-24	-2	5
34	-2	3	-3
35	x	-18	-22
36	-83*	5	u
37	3	-1	6
38	-4	5	u
39	2	28	4
40	-10	-26	-16
41	4	12	-8
42	0	2	-2
43	24	-6	10
44	5	5	3
45	3	29	4

Additional entries.
cpd	mol	TRPML1 agonist	D2 potentiator	TRPML1 blocker
46	COc1ccccc1CCNC(=O)CCn1c(=O)oc2ccccc21	-0.6	-2	-9
47	COc1ccc(C(=O)N2CCC(O)(c3ccc(F)cc3)CC2)cc1OC	0.3	-15	-1
48	O=C1CCCC2=C1C(c1ccc(Cl)cc1)C1C(=O)c3ccccc3C1=N2 (configuration not stated)	5.9	-29	26
49	CCOc1ccccc1NC(=O)C1CCCN(S(=O)(=O)c2ccccc2)C1 (configuration not stated)	1.9	-7	82
50	CN(Cc1cnccn1)Cc1c(C(=O)N2CCc3ccccc3C2)nc2ccc(Cl)cn12	0.1	-7	-9
51	COc1ccc(CNC(=O)c2ccc(CS(=O)(=O)Cc3ccccc3F)o2)cc1	0.1	-10	25
52	C=CCN1CCN(C(c2ccccc2)c2nnnn2CCC(C)C)CC1 (configuration not stated)	-0.9	-10	-7
53	COc1ccc(C(=O)N/N=C/c2c[nH]c3ccccc23)cc1	-0.6	-10	0
54	COCCCn1c(=S)[nH]c2ccc(N3CCOCC3)cc2c1=O	-0.5	-1	27
55	COc1ccccc1OCC(=O)OCC(=O)Nc1sccc1C(N)=O	1.2	-3	9
56	Nc1[nH]c(C(=O)c2ccccc2)c(-c2ccc(Br)cc2)c1C(=O)NC1CC1	0.1	x	x
57	COc1ccc(CN2C(=O)C(CC(=O)NCCN3CCOCC3)CC(C(=O)N(C(C)C)C(C)C)=C2C)cc1 (configuration not stated)	0.6	7	-9

cpd	CtBP-E1A blk	TRPV1 PAM	Six1-Eya2 inh
46	6	5	2
47	-2	1	6
48	-29	x	u
49	-9	-11	-16
50	x	-8	0
51	x	-4	5
52	-5	-9	12
53	-4	11	-2
54	-1	17	-2
55	8	-7	2
56	-25	x	12
57	7	x	4
